High-throughput results from PubChem.
YopH PTP inh = YopH (Yersinia) phosphatase inhibition; inhibition, %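 (about 10 µM by stock and volumes)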; AID 898; fluorescence Ex485/Em525; actives 0.16% (n = 140,000);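 active = inhibition of 50% or more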;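 note: controls were vehicle for no effect and minimum signal wells for full effect; inactives centre near -20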
RecA intein inh = blocks M. tuberculosis RecA intein splicing | inhibition, %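 (about 9 µM by stock and volumes)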 | AID 2221 | cell-free RecA intein splicing, fluorescence | actives 0.75% (n = 290,000) | P9WHJ3; in the data active = inhibition above about 30%; inconclusive = no clear call, values can overlap the other calls;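 note: 0% = vehicle wells and 100% = reference inhibitor control wells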
Target sequence (P9WHJ3 whole entry, looked up): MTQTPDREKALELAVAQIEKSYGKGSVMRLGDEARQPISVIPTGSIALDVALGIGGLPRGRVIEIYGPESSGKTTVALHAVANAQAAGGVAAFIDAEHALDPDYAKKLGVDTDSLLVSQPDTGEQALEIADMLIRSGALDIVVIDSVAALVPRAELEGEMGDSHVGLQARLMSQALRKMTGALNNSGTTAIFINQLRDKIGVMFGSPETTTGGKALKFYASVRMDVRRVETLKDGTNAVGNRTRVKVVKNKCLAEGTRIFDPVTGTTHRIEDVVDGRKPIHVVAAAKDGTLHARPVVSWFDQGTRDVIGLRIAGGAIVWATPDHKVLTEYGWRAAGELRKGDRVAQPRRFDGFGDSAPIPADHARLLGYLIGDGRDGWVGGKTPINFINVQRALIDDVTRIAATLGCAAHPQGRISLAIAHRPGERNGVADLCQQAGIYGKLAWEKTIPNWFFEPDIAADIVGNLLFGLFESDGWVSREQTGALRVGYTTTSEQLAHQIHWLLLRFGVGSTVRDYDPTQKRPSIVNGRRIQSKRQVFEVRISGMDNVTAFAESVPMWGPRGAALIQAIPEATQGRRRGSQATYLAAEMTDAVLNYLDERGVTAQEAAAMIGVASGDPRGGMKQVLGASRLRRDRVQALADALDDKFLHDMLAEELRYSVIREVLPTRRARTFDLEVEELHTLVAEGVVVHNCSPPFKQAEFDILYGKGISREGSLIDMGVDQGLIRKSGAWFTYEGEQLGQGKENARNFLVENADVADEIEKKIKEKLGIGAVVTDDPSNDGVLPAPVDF
Mtb H37Rv = M. tuberculosis H37Rv growth inhibitors, H37Rv strain (AID 1626). M. tuberculosis H37Rv growth inhibition; higher % means a stronger effect. inhibition, % at 10 µM, or IC50 in µM where a hit was titrated. actives 0.95% (n = 220,000);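 active = confirmed in a dose series; inconclusive = inhibition above 80% but not taken into the dose series; inactive = below 80% or under 30% at every dose of the series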;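 note: bacteria incubated seven days before Alamar blue readout; 0% = bacteria only wells and 100% = bacteria with antibiotic wells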
Arbovirus anti = blocks arbovirus infection. inhibition, % at 10 µM. actives 0.37% (n = 200,000). AID 1251. arbovirus infection cell-based antiviral screen;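 active = inhibition from about 30%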;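 note: bluetongue infection of BSR cells; cell survival read as ATP light after 72 h; 0% = infected wells without compound and 100% = uninfected wells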
Mtb bLac sens = beta-lactam sensitization of Mtb H37Rv; M. tuberculosis H37Rv growth with meropenem, percent inhibition; hits of this screen are not shown here; inhibition, % at 25 µM; actives 0.27% (n = 330,000); AID 434955;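 active = about 74% or more and at least 40 points above the plate without the antibiotic, then above 30% in a dose series; inconclusive = first-round hits that could not be retested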;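 note: growth measured after seven days incubation then overnight dye step; 0% = bacteria only wells and 100% = bacteria with antibiotic; twin plates without the antibiotic show which effects depend on it; some results filed as inactive read as strong as hits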
Numbers without * were called inactive; ? = inconclusive; . = no result given.

Each structure is followed by: YopH PTP inh	RecA intein inh	Mtb H37Rv	Arbovirus anti	Mtb bLac sens
#1 O=C(CSc1ccsc1[N+](=O)[O-])N1CCN(c2ccc(Cl)cc2)CC1
  -12	2.1	4%	-5	7
#2 COc1ccccc1OCC(O)Cn1nc(C)cc1C (stereo not drawn)
  -43	-0.5	-1%	3	3
#3 Cc1ccc(Nc2nnc(SC(C)C(=O)NCC3CCCO3)s2)cc1C (stereo not drawn)
  .	4.1	.	.	-4
#4 Cc1cc(C)cc(N(CCC#N)C(=O)COC(=O)C2CCN(S(=O)(=O)c3ccc(C)c(C)c3)CC2)c1
  .	0.8	.	.	-10
#5 COc1ccc(CCn2c(C3CCCCC3)nc3c(c(=O)c4ccccc4n3C)c2=O)cc1OC
  .	-1.7	7%	.	-6
#6 O=C(NNC(=O)C1CC1c1ccccc1)c1cccc([N+](=O)[O-])c1 (stereo not drawn)
  0	-1.5	1%	3	-3
#7 CCCCOC(=O)CSc1nnc(-c2ccc(Cl)cc2Cl)o1
  -34	6.1	?	6	100
#8 Cc1ccc(OCc2nc(C#N)c(N3CCCCC3)o2)cc1
  .	2.3	8%	.	-12
#9 COc1ccc(-c2csc(NC(=O)Cc3cc(OC)c(OC)c(OC)c3)n2)cc1OC
  .	0.8	.	.	-7
#10 CCOC(=O)Cn1c(=O)cc(C)c2ccccc21
  .	4.7	-2%	-3	-2
#11 O=C(NCc1ccc(F)cc1)C1CC(=O)N(CCc2ccccc2)C1 (stereo not drawn)
  -29	2.4	-1%	2	-15
#12 CCOC(=O)NC(Nc1sc2c(c1C(N)=O)CCCC2)(C(=O)OCC)C(F)(F)F (stereo not drawn)
  -7	-0.1	-1%	-6	-5
#13 Cc1cc(-c2n[nH]c(=S)n2Cc2ccccc2)cs1
  -28	5.5	-3%	6	6
#14 O=C(/C=C\c1ccc2c(c1)OCO2)CC1(O)C(=O)Nc2ccccc21 (stereo not drawn)
  .	6.6	1%	.	6
#15 O=C1c2ccccc2S(=O)(=O)c2cc(C(=O)N(c3ccccn3)c3ccccn3)ccc21
  -29	-0.2	-6%	-2	1
#16 C=CCn1c(O)c(C(C)=Nc2ccc(C(=O)O)cc2)c(=O)[nH]c1=O
  .	1.5	-12%	.	-7
#17 CS(=O)(=O)c1nc(S(=O)(=O)c2ccc(Cl)cc2)c(N2CCN(CCO)CC2)s1
  .	-1.6	.	.	-1
#18 COc1ccc(-c2nc(C#N)c(NCc3ccco3)o2)cc1
  .	4.9	5%	3	42
#19 CC1=CC2=NC(=O)CC(C)(C(=O)N(CC(=O)NC(C)C)C3CCCC3)N2C=C1 (stereo not drawn)
  .	-1.8	-7%	5	1
#20 O=S(=O)(c1ccc(Cl)cc1)c1cc(O)ccc1O
  .	-5.1	.	.	-4
#21 C=CCN(CC=C)S(=O)(=O)c1ccc2nc(NC(=O)C3CCCO3)sc2c1 (stereo not drawn)
  -33	-1.6	-3%	-16	3
#22 CCOC(=O)CC(=O)CSc1nc2ccc(C)cc2cc1C#N
  -43	.	-11%	6	5
#23 CCN(C(=O)C12CC3CC(CC(C3)C1)C2)C1CCS(=O)(=O)C1 (stereo not drawn)
  .	0.7	.	.	-2
#24 CC(Sc1nc(-c2ccccc2)cs1)C(=O)Nc1ccc(Cl)cn1 (stereo not drawn)
  -14	4.1	2%	4	.
#25 O=C1CCC2CCCCC2(O)O1 (stereo not drawn)
  -31	1.1	-1%	4	-5
#26 Clc1ccc(-n2nnc(-c3cccnc3Cl)n2)cn1
  .	1.5	-9%	1	-5
#27 COc1ccccc1NS(=O)(=O)c1cc(NC(=O)C2CCC2)ccc1N1CCCCC1
  .	3.1	4%	.	29
#28 S=C(Nc1ccc(-c2nc3ccccc3[nH]2)cc1)Nc1cccnc1
  .	9.9	.	.	-3
#29 COCCCn1c(SCC(=O)Nc2cccc(C)n2)nnc1-c1ccco1
  29	.	-7%	9	-3
#30 CC(=O)NS(=O)(=O)c1ccc(NC(=O)CSc2ccc(C)cc2)cc1
  .	0.8	0%	4	-8
#31 CSc1nsc(SC)c1C(=O)NCCNS(=O)(=O)c1ccc(C)cc1
  0	-2.4	-7%	-2	-12
#32 NC(=O)c1ncc(C(F)(F)F)cc1Oc1cccc(C(F)(F)F)c1
  -6	-1.2	-3%	-4	-4
#33 COc1ccccc1/C=C/C(=O)Nc1ccc2c(c1)CCC2
  -32	5.6	5%	5	7
#34 Cn1c2c(c(=O)n(C)c1=O)CN(Cc1ccc3c(c1)OCO3)CN2
  -11	0.2	1%	2	-1
#35 COC(=O)C1=NN(C(=O)c2ccc(C)cc2)C(O)(c2ccc(Cl)cc2)C1 (stereo not drawn)
  -40	19	-5%	11	14
#36 CCN(CC)S(=O)(=O)c1ccc2[nH]cc(C(=O)NCCc3ccccc3)c(=O)c2c1
  -35	3.3	-9%	13	27
#37 Cc1ncc(CO)c2cc(C(=O)Nc3ccccc3Cl)c(=Nc3cccc(C(N)=O)c3)oc12
  .	0.9	.	.	4
#38 COC(=O)[C@@]1(Cc2ccc(OC)cc2)[C@@H]2C(=CC(=O)[C@H]2CC(=O)C(=O)N2CCCC2)CN1C(=O)c1ccccc1
  -14	.	-7%	-37	26
#39 CN(C(=O)CN1C(=O)/C(=C/c2ccccc2Cl)SC1=S)C1CCS(=O)(=O)C1 (stereo not drawn)
  .	1.5	.	.	-4
#40 CCc1sc(C(=O)NCc2cc(C)n(C)n2)cc1Br
  -4	4.4	-6%	3	1
#41 CC(C)(C)NNC(=S)Nc1cccc(C(F)(F)F)c1
  .	-3.0	1%	.	-4
#42 CC1SC(C)C(=O)N(CC(=O)NC2CCCCC2)C1=O (stereo not drawn)
  .	.	1%	18	.
#43 O=C(C1CC(=O)N(c2ccccc2)C1)N1CCN(c2ccccc2)CC1 (stereo not drawn)
  .	-0.3	.	.	9
#44 C=CCNC(=O)/C(C#N)=C/c1ccc2c(c1)OCCO2
  .	-11	-7%	0	1
#45 COc1ccc(CCNCCN2CCOCC2)cc1
  .	1.3	.	.	8

Overlap with the part before: 4 compounds, followed by the next part.
Each structure is followed by: YopH PTP inh	RecA intein inh	Mtb H37Rv	Arbovirus anti	Mtb bLac sens
#42 CC1SC(C)C(=O)N(CC(=O)NC2CCCCC2)C1=O (stereo not drawn)
  .	.	1%	18	.
#43 O=C(C1CC(=O)N(c2ccccc2)C1)N1CCN(c2ccccc2)CC1 (stereo not drawn)
  .	-0.3	.	.	9
#44 C=CCNC(=O)/C(C#N)=C/c1ccc2c(c1)OCCO2
  .	-11	-7%	0	1
#45 COc1ccc(CCNCCN2CCOCC2)cc1
  .	1.3	.	.	8
#46 O=C1CN(O)C(c2ccccc2)=c2cc(Cl)ccc2=N1
  .	-3.6	.	.	-4
#47 Cc1cc(C)c(S(=O)(=O)N2CCOCC2)c(C)c1N(C)S(=O)(=O)c1ccccc1
  .	0.1	.	.	-4
#48 CC(NC(=O)c1ccc(Cl)cc1)C(=O)NC1=NCCS1 (stereo not drawn)
  -26	-2.5	-1%	10	4
#49 CCN(CC)C(=O)N1CCC(NC(=O)c2ccc(C(C)(C)C)cc2)CC1
  -24	4.0	-1%	2	9
#50 CC1CCCN(c2ccc(F)cc2N)C1 (stereo not drawn)
  .	3.7	.	7	-14
#51 CCn1c(SCC(=O)Nc2cc(C)on2)nc2sc3c(c2c1=O)CCCC3
  -19	-1.0	.	-19	0
#52 CCOC(=O)c1c(C)oc2c1c(C(c1ccncc1)N1CCOCC1)c(O)c1ccccc12 (stereo not drawn)
  21	.	7%	-38	80
#53 Cn1cc(Br)c(C(=O)NC2CCCCC2)n1
  6	0.6	5%	-2	-2
#54 CC(C)C(NC(N)=O)C(=O)NC1CCCCC1 (stereo not drawn)
  .	1.6	-2%	5	-9
#55 O=C(CCc1ccc(S(=O)(=O)N2CCOCC2)cc1)N/N=C/c1ccc(F)cc1F
  .	-2.8	-1%	5	-7
#56 Cc1c(C(=O)Nc2ccccc2F)sc2ncn(CC(=O)N3CCCCC3)c(=O)c12
  .	2.3	.	.	1
#57 COc1ccccc1OCCCC(=O)Nc1nnc(C2CCCO2)s1 (stereo not drawn)
  .	-0.1	.	.	-7
#58 COc1ccc(-c2csc(-c3[nH]cnc3N)n2)cc1
  .	-5.9	-10%	-3	10
#59 CC(C)N(C(=O)CSc1ncnc2sc(-c3ccccc3)cc12)C(C)C
  2	1.5	-7%	-4	-4
#60 Cc1ccc(-n2[nH]c(C)c(C=Nc3ccc(S(=O)(=O)Nc4nccs4)cc3)c2=O)cc1C
  -13	2.4	?	-7	95
#61 Cc1cccc(C(=O)N2CCNC(=O)C2CC(=O)Nc2cccc(Cl)c2)c1 (stereo not drawn)
  .	-0.2	.	.	-1
#62 CSc1cccc(NC(=S)NC(=O)CCc2ccccc2)c1
  .	0.9	.	.	?
#63 O=C(O)c1cc(-c2ccc(-c3ccc(F)cc3)o2)nc2ccccc12
  .	-327	.	.	9
#64 COc1cccc(N2CCN(C(=O)c3ccc(CS(=O)Cc4ccccc4Cl)o3)CC2)c1 (stereo not drawn)
  .	-2.0	.	.	-3
#65 O=C(c1ccc(F)cc1)C1CCN(C(=O)c2ccccc2)CC1
  .	0.2	.	.	-2
#66 CC(C)(C)c1nc2ccccc2c2nnc(SCC(=O)Nc3nc4ccccc4s3)n12
  -16	6.2	-2%	-5	-9
#67 CCCCNC(=S)NCc1ccc2[nH]c(C)cc2c1
  -10	-1.2	2%	10	-1
#68 Nc1cc(Cl)ccc1Oc1ccc(Cl)cc1
  -11	3.9	7%	-7	-5
#69 CCOC(=O)C1C(=O)NC(c2ccccc2)=NC1c1ccc(Cl)cc1 (stereo not drawn)
  -45	-1.8	-6%	9	0
#70 Cc1ccc(-c2nn(CCC(N)=O)c(=O)c3ccccc23)cc1
  .	0.3	.	.	6
#71 O=C(O)CCc1ccc(-c2ccc(Cl)cc2)o1
  -27	-0.6	63%	2	89
#72 C/C(=N\NC(=O)c1ccn(C)n1)c1cccc(NC(=O)c2ccc(C)s2)c1
  -14	1.7	1%	-1	-4
#73 CCO/N=C1\C(=O)N(c2ccccc2)c2ccccc21
  .	2.5	0%	-1	0
#74 COC(=O)C1=C(N)c2ccccc2C1(C#N)c1ccccc1 (stereo not drawn)
  4	0.7	2%	-6	-6
#75 CCNC(=O)CN1c2cccc3cccc(c23)S1(=O)=O
  -14	-0.3	-2%	3	-10
#76 COc1ccc(NC(=O)c2ccc(COCC(F)(F)C(F)F)cc2)cc1
  -25	0.6	>100µM*	-5	93
#77 COc1ccc(OCc2n[nH]c(=S)n2N)cc1
  .	0.9	-1%	0	2
#78 CC1CCN(S(=O)(=O)c2nnc(NC(=O)c3ccccc3Br)s2)CC1
  .	2.5	.	.	-7
#79 O=C(O)c1cn(Cc2cccnc2)c(=O)c2ccccc12
  .	5.2	0%	3	-7
#80 Cc1cc(Cl)ccc1OCC(=O)NCC(c1cccs1)N1CCOCC1 (stereo not drawn)
  .	-2.1	.	.	-6
#81 CCN(C(=O)CSc1nnc2ccccn12)c1c(N)n(Cc2ccccc2)c(=O)[nH]c1=O
  -30	-0.1	3%	1	20
#82 O=C(Nc1nnc(SCc2ccccc2)s1)c1cc2c(s1)CCCC2
  -10	-3.0	1%	0	22
#83 COc1cc(O)c(C(CC(=O)N2CCCC2)c2ccc3c(c2)OCO3)c(OC)c1 (stereo not drawn)
  .	2.6	-8%	.	-5
#84 CCOC(=O)c1cnn2c(C(F)F)cc(C3CC3)nc12
  -32	0.2	-8%	7	-1
#85 COCc1cc(C)nc(SCc2ccccc2Cl)c1C#N
  .	8.7	.	.	1
#86 N[C@H]1C(O)O[C@H](CO)[C@@H](O)[C@@H]1O (stereo partly drawn)
  .	-0.5	.	.	-4
#87 Cc1c(Br)c([N+](=O)[O-])nn1CCCC(=O)Nc1sc2c(c1C(N)=O)CCC(C)C2 (stereo not drawn)
  -20	-5.9	9%	3	11
#88 O=[N+]([O-])c1ccc(N2CCCCCC2)c(S(=O)(=O)N2CCCCC2)c1
  -36	5.8	-14%	-6	-4
#89 O=S(=O)(/N=C(/NS(=O)(=O)c1ccccc1)c1ccccc1)c1ccccc1
  .	-2.7	-2%	7	-1
#90 CCOc1ccccc1OCC(=O)O
  -55	-0.7	-4%	6	-15
#91 COc1ccc(-c2cc(C(=O)N3CCN(c4cccc(C)c4C)CC3)c3ccccc3n2)cc1OC
  .	9.6	.	.	84
#92 O=C(Nc1ccncc1)c1ccc(Cl)c(Cl)c1
  .	1.3	.	.	6
#93 O=C(CSc1nnc(Cc2cc(=O)[nH]c(=O)[nH]2)n1-c1ccccc1)N1CCCC1
  -64	-2.3	-12%	4	-2
#94 Fc1ccccc1CNCCc1c[nH]c2ccccc12
  .	-1.0	.	.	5
#95 CCN(Cc1ccccc1)c1ccc(/C=N/NS(=O)(=O)c2ccc(C)c([N+](=O)[O-])c2)cc1
  -37	4.0	-9%	-13	2
#96 O=C(O)/C=C\c1ccccc1Oc1ccc(F)cc1
  .	.	-10%	0	-6
#97 CN(C)NC(=O)c1cccc(Cl)c1
  .	0.4	-3%	.	-10

Only part of the results is shown. The share of hits here may be higher or lower than overall.
